# MT1-MMP act inh: blocks activation of human MT1-MMP; P50281; HT1080 RFP-PRO-GFP cells, GFP/RFP ratio fluorescence, overnight; percent of plate control window, DMSO zero; GFP/RFP ratio change, % at 20 µM; 360,000 tested, 0.061% active; AID 651647;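 active = GFP/RFP ratio change of at least 30% with cell ATP level not reduced by more than half and red fluorescence within 50% of control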; note: strong numbers were not always called active
#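 system = RFP-PRO-GFP reporter HT1080 cells | dosing = 20 µM single dose, 1% DMSO | timing = overnight cell settling, then overnight compound exposure, 37 °C, 5% CO2 | read-out basis = GFP/RFP fluorescence ratio | controls = DMSO and RFP-L50D-GFP cell wells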
# Yeast UUG start: yeast start codon fidelity modulation. S. cerevisiae UUG-firefly luciferase reporter, luminescence/redox ratio. activity score, % at 18.7 µM. 350,000 tested, 0.13% active;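 active = replicate mean at a twofold rise or more, about +100% in these data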;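 note: firefly luciferase made from a UUG start codon reports start codon fidelity; reporter light over untreated wells divided by growth signal over untreated wells; some hits fall short of that in this replicate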
# MT1-MMP act inh RFP: also measured in MT1-MMP act inh; calls as there; RFP signal change, %; measured here: RFP expression control read;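 0 = vehicle wells; hits needed this value within 50% of zero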
# Numbers without * were called inactive; & = joins results of further samples. An excerpt. The share of hits here may be higher or lower than overall.
MT1-MMP act inh RFP | MT1-MMP act inh | Yeast UUG start | smiles
2.3 | 4.1 | -13.5 | CCOC(=O)C1(C)CCCN(C(=O)c2ccc3c(c2)OCO3)C1 (stereo not given)
1.8 | 0.7 | -25.2 | COc1ccc(CNC(=O)/C=C/[C@H]2O[C@@H](n3cc(C)c(=O)[nH]c3=O)C[C@@H]2O)cc1
6.1 | 0.3 | -7.7 | COCCN(C(=O)c1cc(Cl)ccn1)c1c(N)n(Cc2ccccc2)c(=O)[nH]c1=O
3.3 | -2.2 | -16.7&3.0 | COc1cccc(S(=O)(=O)N(C)C[C@@H]2OCc3cn(nn3)CCCC(=O)N([C@H](C)CO)C[C@H]2C)c1
2.8 | 1.5 | -0.8 | CC1(C(=O)NS(=O)(=O)C2CC2)CCN(C(=O)C2(c3ccc(Cl)cc3)CCCC2)C1 (stereo not given)
-3.7 | -16.5 | -13.2 | CCC(CN(C)C)Oc1cc(NCc2ccccc2)c2ncn(C(C)C)c2c1 (stereo not given)
5.2 | 2.4 | -0.7 | CC(OC(=O)c1cc(=O)c2ccccc2o1)C(=O)Nc1ccc(N(C)C)cc1 (stereo not given)
7.1 | 2.4 | -11.4 | O=C(COC(=O)c1cccc(S(=O)(=O)N2CCCCC2)c1)NC1CCCCC1
-7.5 | -0.1 | 14.1 | CN(CCc1ccccc1)C(=O)c1ccc(NC(=O)Cc2ccc(NC(=O)C3CCN(C(=O)C4CC4)CC3)cc2)cc1
-0.8 | 0.6 | -17.7 | Cc1cc(=O)c(C(=O)Nc2cccc(N3CCCC3=O)c2)nn1-c1ccccc1Cl
2.1 | -2.8 | 3.8 | COc1ccccc1CNC(=O)COC(=O)Cc1cccc(F)c1
4.0 | 0.1 | -17.4 | CN1CCN(C(=O)C2CCN(S(=O)(=O)c3ccccc3[N+](=O)[O-])CC2)CC1
2.7 | 1.5 | 1.2 | O=C(O)c1ccn(CSc2cc(Cl)ccc2Cl)n1
2.0 | 4.3 | -6.4 | O=[N+]([O-])c1cccc(COc2ccccc2CN2CCCC2)c1
0.6 | 1.5 | -0.9 | COc1ccc(NC(=O)Cc2ccccc2F)cc1S(=O)(=O)N1CCCCC1
-2.5 | 9.5 | 6.9 | CC(C)=C[C@H]1C[C@H](C)[C@H]2CC[C@H](C)c3c(O)c(O[C@H]4OC[C@H](O)[C@@H](O)[C@@H]4O)c(C)c1c32
4.0 | 2.9 | -32.8 | CN(C)c1ccc(-c2[nH][nH]c(=O)c2NC(=O)c2ccccn2)cc1
-1.8 | -5.1 | -9.3 | CCCCN(CCCC)Cc1cc(=O)oc2cc(C)c(Cl)cc12
-8.5 | 9.6 | -12.9 | CCN(Cc1nc2ccccc2c(=O)[nH]1)C(=O)c1cc2c(s1)CCCCC2
4.8 | 1.6 | -19.1 | COCCN(C(=O)c1c(C)noc1C)c1c(N)n(CC(C)C)c(=O)[nH]c1=O

# Reprinted from the part before: 2 compounds, then new ones.
MT1-MMP act inh RFP | MT1-MMP act inh | Yeast UUG start | smiles
-8.5 | 9.6 | -12.9 | CCN(Cc1nc2ccccc2c(=O)[nH]1)C(=O)c1cc2c(s1)CCCCC2
4.8 | 1.6 | -19.1 | COCCN(C(=O)c1c(C)noc1C)c1c(N)n(CC(C)C)c(=O)[nH]c1=O
2.4 | 0.2 | -10.4 | Nc1ccc2c(c1)Cc1c(F)cccc1-2
-2.1 | 1.9 | -16.5 | COc1ccc(CCNC(=O)c2cc(-c3ccccn3)nc3ccccc23)cc1
-2.9 | 0.1 | 8.0 | CC1=C(C(=O)N(C(C)C)C(C)C)CC(CC(=O)NCc2cccs2)C(=O)N1CCC1=CCCCC1 (stereo not given)
-1.6 | 0.3 | -35.0 | Clc1ccccc1CNCc1ccc2c(c1)OCO2
1.3 | -0.8 | -10.4 | O=C(CN1C(=O)NC2(CCc3ccccc32)C1=O)Nc1ccccc1OC(F)F (stereo not given)
-4.0 | -0.1 | -19.5 | O=C(CN1C(=O)NC(c2ccccc2)(c2ccccc2)C1=O)NCc1ccccc1
-11.2 | 5.0 | -4.6 | CC1CN(S(=O)(=O)c2cccc(C(=O)OCCOc3ccccc3)c2)CC(C)O1 (stereo not given)
-1.7 | -0.9 | -9.6 | CC(=O)Nc1cccc(C(=O)Nc2cc(C(F)(F)F)ccc2-n2cncn2)c1
-1.4 | 0.5 | -15.3 | O=C(C[n+]1ccccc1)N/N=C/c1ccc(Cl)cc1
-3.1 | -1.9 | 2.4 | O=C(NCc1ccccn1)c1ccccc1OCc1ccccc1Cl
-28.6 | 11.9 | -15.6 | Cc1nn(C)c(C)c1NC(=O)COc1ccc(Cl)cc1
0.9 | 0.2 | -11.3 | O=C(Nc1cc(C(F)(F)F)ccc1N1CCOCC1)C1CC1
-11.1 | -3.8 | -12.1 | CC[C@]12c3[nH]c4cc(-c5ccco5)ccc4c3CCN1C(=O)[C@@H](CC(=O)NCC13CC4CC(CC(C4)C1)C3)C[C@@H]2C(=O)N1CCN(C(=O)C2CC2)CC1
1.4 | 1.0 | -7.0 | O=C(NC1CC1)C1CCN(S(=O)(=O)c2cc([N+](=O)[O-])ccc2Cl)CC1
0.1 | 6.0 | 8.0 | Nc1c(N(CCCO)C(=O)C2CCCC2)c(=O)[nH]c(=O)n1Cc1ccccc1
1.2 | -0.6 | 0.9 | CC(=O)c1ccc(OC(=O)C2CSC3(C)CCC(=O)N23)cc1 (stereo not given)
-18.3 | -4.4 | -48.8 | CCOC(=O)c1ccc2c(c1)nc(C)n2CC
7.2 | 1.6 | -3.9 | CCN(CC(=O)Nc1ccc(NC(C)=O)cc1)C(=O)CCN1C(=O)C2CC=CCC2C1=O (stereo not given)
-0.1 | -4.5 | -0.3 | COc1ccc(C)cc1NC(=O)CCCN1C(=O)CN(C)C1=O
-0.2 | 1.2 | 1.7 | Cc1ccc(C)c(NC(=O)CCN2C(=O)C3CC=CCC3C2=O)c1 (stereo not given)

# The list goes on (3 carried over from the part before).
MT1-MMP act inh RFP | MT1-MMP act inh | Yeast UUG start | smiles
7.2 | 1.6 | -3.9 | CCN(CC(=O)Nc1ccc(NC(C)=O)cc1)C(=O)CCN1C(=O)C2CC=CCC2C1=O (stereo not given)
-0.1 | -4.5 | -0.3 | COc1ccc(C)cc1NC(=O)CCCN1C(=O)CN(C)C1=O
-0.2 | 1.2 | 1.7 | Cc1ccc(C)c(NC(=O)CCN2C(=O)C3CC=CCC3C2=O)c1 (stereo not given)
0.6 | 1.3 | -14.6 | CC(C)c1cc(Cn2c3ccccc3c(=O)n2C(C)CBr)on1 (stereo not given)
2.8 | 0.9 | 0.4 | CCC[C@@H](CN1CCC[C@H]1CN1C(N)=NC[C@@H]1Cc1ccccc1)N1C[C@@H]([C@H](C)CC)N(CCc2ccc(Cl)c(Cl)c2)C1=N
6.3 | 8.5 | -22.6 | CCC(C)C(CO)NCCCn1cnc2c(OCc3ccccc3)ncnc21 (stereo not given)
1.9 | -1.0 | -3.2 | C=CC(=O)Nc1ccc(CN2C(=O)N(c3c(Cl)c(OC)cc(OC)c3Cl)Cc3cnc(NCCCCN(CC)CC)nc32)cc1
2.9 | 5.1 | -7.4 | CCOc1ccc(OCC(=O)Nc2cccc(S(=O)(=O)NC3=NCCC3)c2)cc1
-1.9 | -2.8 | -38.0 | CC1CC(C)CN(C(=O)COC(=O)c2c[nH]c3ccccc23)C1 (stereo not given)
-2.7 | 0.1 | -9.2 | COc1ccc([C@H]2N[C@]3(CCCN(Cc4ccc(C)cc4)C3=O)[C@H]3C(=O)N(C)C(=O)[C@@H]23)cc1
-2.3 | -0.5 | -6.9 | NC(=O)c1ccccc1NC(=O)c1cc(S(=O)(=O)N2CCCCC2)ccc1N1CCOCC1
-8.8 | -1.6 | -21.5 | CCOC(=O)C1=CC[C@@H](c2ccc(F)cc2)N(S(=O)(=O)c2ccc(C)cc2)[C@H]1c1ccccc1
0.2 | 9.4 | -21.1 | Nc1ccc2c(c1)C(=O)c1ccc(N)cc1-2
-1.2 | -2.5 | -2.2 | CC(OC(=O)c1ccc(S(=O)(=O)N2CCCCC2)cc1)C(=O)Nc1ccc(C(N)=O)cc1 (stereo not given)
6.1 | 4.3 | 0.2&39.8 | Cc1cccc(S(=O)(=O)N(C)C[C@@H]2OCc3cn(nn3)CCCC(=O)N([C@@H](C)CO)C[C@H]2C)c1
5.5 | 0.6 | -17.6 | COCCNC(=O)C1CCCN(Cc2ccccc2Cl)CC1 (stereo not given)
-0.4 | -0.2 | -2.3 | CC(=O)Nc1ccc(S(=O)(=O)NCCC(=O)OCc2ccccc2F)cc1
-1.3 | 1.8 | -2.8 | COc1ccc2c(c1)C(=O)CC(c1ccccc1)O2 (stereo not given)
7.0 | 9.0 | 0.9 | Cc1cccc(NC(=O)C(C)Sc2nc3ccccc3c(=O)n2CCCN2CCOCC2)c1 (stereo not given)
0.5 | -0.7 | -6.0 | COc1cc(NC(=O)CN2C(=O)NC(CC(C)C)C2=O)cc(OC)c1OC (stereo not given)
-0.8 | -3.6 | -5.2 | Cc1ccc(S(=O)(=O)N(C)c2ccc(OC(=O)c3cc(=O)[nH]c4ccccc34)cc2)cc1
4.0 | -1.0 | -53.8 | Cc1ccc(S(=O)(=O)NC(CC(C)C)C(=O)NCC(c2ccco2)N2CCCCC2)cc1 (stereo not given)
3.2 | 0.3 | -19.2 | Cc1c(C(=O)N2CCC2(C)C(=O)O)oc2ccccc12 (stereo not given)

# Full records, quoted from the list.
# Cc1c(C(=O)N2CCC2(C)C(=O)O)oc2ccccc12 (stereo not given) as listed: MT1-MMP act inh RFP = 3.2; MT1-MMP act inh = 0.3; Yeast UUG start = -19.2
# Cc1cccc(S(=O)(=O)N(C)C[C@@H]2OCc3cn(nn3)CCCC(=O)N([C@@H](C)CO)C[C@H]2C)c1 as listed: MT1-MMP act inh RFP = 6.1; MT1-MMP act inh = 4.3; Yeast UUG start = 0.2&39.8

# Next structures follow.
MT1-MMP act inh RFP | MT1-MMP act inh | Yeast UUG start | smiles
3.5 | 2.7 | -14.3 | CC1C(=O)N(Cc2cn(CCC3OCCCO3)nn2)CCS(=O)(=O)N1Cc1ccc(-c2ccc(F)nc2)cc1 (stereo not given)
-23.9 | 3.5 | -15.1 | CN(c1ccccc1)S(=O)(=O)c1cccc(NC(=O)Cc2n[nH]c(=O)c3ccccc23)c1
-3.3 | 0.9 | 2.8 | CC(Sc1nnc(C(C)Oc2ccccc2F)o1)C(=O)NCc1ccc2c(c1)OCO2 (stereo not given)
-5.0 | 1.0 | -4.5 | COc1ccc(N(CCOc2ccccc2)S(=O)(=O)c2ccccc2)cc1
-22.6 | -0.5 | 0.8 | COc1ccc(-c2coc3c(C(=O)NCC4CC4)cccc23)c(C)c1
2.8 | 0.5 | 7.2 | C=C1[C@@H](OC(C)=O)C=C[C@@]2(C)C=CC(=O)[C@@](C)(OC(C)=O)[C@@H]2[C@@H](OC(C)=O)[C@]2(O)[C@@H](C)C(=O)O[C@H]2[C@H]1Cl
1.0 | 1.8 | -7.0 | CCOc1ccc(C(=O)OCC(=O)Nc2cc(S(=O)(=O)N3CCOCC3)ccc2N2CCOCC2)cc1
-11.2 | -3.6 | -8.6 | CCC(C)(C)C1CCC2(CC1)NC(=O)N(CC(=O)N1CCN(c3ccccc3OC)CC1)C2=O (stereo not given)
-0.4 | -2.9 | -8.0 | O=C(NN(Cc1ccccc1)Cc1ccccc1)c1ccccc1
-3.2 | 4.9 | -4.5 | CCCc1cc(=O)oc2c3c(cc(OCC(=O)N4CCC(C(=O)O)CC4)c12)OC(C)(C)CC3
3.3 | 0.8 | -3.8 | CCC(c1nc2ccccc2[nH]1)N(C(=O)Cc1cc(OC)cc(OC)c1)c1ccc(N2CCOCC2)cc1 (stereo not given)
0.0 | -0.2 | -7.7 | OC1C2CCC(C2)C1CN1CCOCC1 (stereo not given)
-13.0 | 3.3 | -9.9 | O=C(NNC(=O)c1ccc(Br)s1)c1ccc(F)c(S(=O)(=O)N2CCOCC2)c1
6.9 | 3.2 | -1.3 | CC(C)[C@H](NC(=O)c1ccc(Cl)cc1Cl)C(=O)OCc1nc2ccsc2c(=O)[nH]1
5.4 | 4.4 | -0.9 | COc1ccc(S(=O)(=O)N2CCOCC2)cc1NC(=O)c1ccc(=O)[nH]c1
3.4 | -1.9 | -11.1 | COCCN(C(=O)c1ccc(C)c(S(=O)(=O)N2CCOCC2)c1)c1c(N)n(CC(C)C)c(=O)[nH]c1=O
1.9 | -0.5 | -17.9 | O=C(Cn1c(=O)cnc2ccccc21)NNC(=O)c1ccc(Cl)cc1
7.3 | 1.5 | -14.1 | CN(C(=O)CSc1nnc(-c2ccco2)n1Cc1ccccc1)C1CCS(=O)(=O)C1 (stereo not given)
3.4 | 6.8 | -9.3 | O=C(NCc1ccccc1Cl)c1ccc(S(=O)(=O)N2CCCC2)cc1
2.6 | -1.5 | 2.9 | CSCCC(NC(=O)c1ccccc1)C(=O)NCCCn1nc(C)cc1C (stereo not given)
2.4 | 1.4 | -11.0 | CC1(C(=O)NS(=O)(=O)c2ccccc2Cl)CCN1C(=O)CC1CCCC1 (stereo not given)
-0.7 | -1.6 | 0.8 | CCCCn1c(N)c(N(Cc2ccccc2OC)C(=O)C(C)Oc2ccc(Br)cc2)c(=O)[nH]c1=O (stereo not given)
5.6 | 3.3 | -15.6 | Cc1ccc2nc3c(cc(S(=O)(=O)c4ccccc4)c(=N)n3C3CCCC3)c(=O)n2c1
3.4 | -0.3 | -22.3 | Cc1ccccc1OCC(=O)OCC(=O)Nc1ccc2c(c1)OCCO2
-6.4 | 1.1 | -14.9 | Cc1nn(-c2cccc(Cl)c2)nc1C(=O)Nc1cccc(C(=O)NC2CC2)c1
-0.7 | 1.7 | -3.9 | Cc1csc(=O)n1CC(=O)Nc1ccc(Cl)cc1F
